High-throughput results: PubChem BioAssay, Broad Institute
Vaccinia inh: Vaccinia orthopox stage-specific inhibition. activity change (mCherry), % (no concentration beside the values). Vaccinia-infected cells, mCherry/Venus stage reporter fluorescence; active compounds read low; some inactives read as strong as hits. 89,000 compounds, 0.01% hits;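 active = mCherry past -33% and 40 or more points under the early reporter, replicates agreeing; inconclusive = past -33% without that gap or agreement; tested in A549 cells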;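 also: scaled between vehicle wells and reference inhibitor wells; 23 nL library stock went into each well; one replicate is shown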
Vaccinia inh Venus: second read-out of Vaccinia inh, no call of its own (marks repeat the call); activity change (Venus), %; measured here: Venus reporter, other viral stage;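 negative = less Venus signal; first of two replicates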
* = called active by the depositor; u = inconclusive; x = not tested or not shown; & = joins results of further samples. Some of the compounds tested; count on the stated rates, not on these rows.

SMILES	Vaccinia inh	Vaccinia inh Venus
O=C(C1CCCCC1)N1[C@H](CO)[C@@H](c2ccccc2)C12CN(Cc1cccc(Cl)c1)C2	-26	-13
CC(C)NC(=O)N(C)C[C@H]1Oc2cc(C#CC(C)(C)O)ccc2S(=O)(=O)N([C@H](C)CO)C[C@@H]1C	25	7
C[C@@H]1CN([C@H](C)CO)C(=O)c2cc(-c3ccc(C(=O)N(C)C)cc3)cnc2O[C@@H]1CN(C)C(=O)c1cccnc1	19&14	3&6
C[C@H]1CN([C@@H](C)CO)C(=O)c2cc(-c3ccccc3F)cnc2O[C@H]1CN(C)C(=O)C1CCCCC1	6	2
Cc1ccc(CN(C)C[C@@H]2OCc3cnnn3CCCC(=O)N([C@H](C)CO)C[C@H]2C)cc1	11	11
C[C@H]1CCCCO[C@@H](CN(C)C(=O)Nc2ccc(C(F)(F)F)cc2)[C@@H](C)CN([C@@H](C)CO)C(=O)c2cc(NC(=O)Nc3cccc4ccccc34)ccc2O1	19	7
CCc1csc(N2[C@@H](C#N)[C@H](c3ccc(-c4ccc(F)cc4)cc3)[C@@H]2CO)n1	u	x
CN1c2ccc(Br)cc2[C@@H]2[C@@H](CCN2C(=O)Nc2ccc(F)cc2)[C@@H]1CO	26	-2
CC(C)NC(=O)Nc1cccc2c1O[C@@H](CN(C)Cc1ccc(Cl)c(Cl)c1)[C@@H](C)CN([C@@H](C)CO)C2=O	u	x
COc1ccc(NC(=O)Nc2ccc3c(c2)C(=O)N([C@@H](C)CO)C[C@@H](C)[C@@H](CN(C)Cc2ccc(-c4ccccc4)cc2)O3)cc1	u	x
O=C(Cc1ccccc1)N1CCCCN2[C@H](C1)[C@@H](c1ccc(C#CC3(O)CCCC3)cc1)[C@@H]2CO	3	-10
C[C@H]1CN([C@@H](C)CO)C(=O)c2cc(NC(=O)CCC(F)(F)F)ccc2O[C@H]1CN(C)C	8	6
C[C@H]1CCCCO[C@H](CN(C)C(=O)CCC(F)(F)F)[C@@H](C)CN([C@@H](C)CO)C(=O)c2cc(NS(=O)(=O)c3ccccc3)ccc2O1	-12	-13
O=C(c1ccccn1)N1C[C@H]2[C@@H](c3ccccc31)[C@@H](CO)N2C(=O)Nc1ccccc1	15	13
O=C(Nc1ccc(F)cc1)N[C@@H]1CC[C@H](CC(=O)N2CCOCC2)O[C@@H]1CO	9	3
CC(C)CC#Cc1cnc2c(c1)C(=O)N([C@H](C)CO)C[C@@H](C)[C@@H](CN(C)C(=O)c1cccc(F)c1)O2	-25	-23
C[C@H]1CN([C@@H](C)CO)C(=O)c2c(c3ccccc3n2C)-c2ccccc2CO[C@H]1CN(C)C(=O)Nc1ccc(-c2ccccc2)cc1	-34	-26
C[C@@H](NC(=O)[C@H]1[C@H](CO)[C@H]2Cn3c(cccc3=O)[C@@H]1N2Cc1ccncc1)c1ccccc1	7	8
CCS(=O)(=O)NCC[C@H]1CC[C@@H](NS(=O)(=O)c2ccccc2C)[C@@H](CO)O1	12	18
C[C@@H]1CN([C@H](C)CO)C(=O)c2cc(NC(=O)Nc3ccc4c(c3)OCO4)ccc2O[C@@H](C)CCCCO[C@@H]1CN(C)S(=O)(=O)c1cn(C)cn1	20	14
COc1ccc(NC(=O)Nc2ccc3c(c2)C(=O)N([C@H](C)CO)C[C@@H](C)[C@H](CN(C)CC2CCCCC2)OCCCC[C@@H](C)O3)cc1	u	x
COCC(=O)N1C[C@@H]2[C@H](c3ccccc31)[C@H](CO)N2C(=O)Nc1ccccc1Cl	11	13
Cc1ccc(S(=O)(=O)N(C)C[C@@H]2OCCCC[C@@H](C)Oc3ccc(NC(=O)Nc4ccc5c(c4)OCO5)cc3C(=O)N([C@@H](C)CO)C[C@@H]2C)cc1	13	4
O=C(C1CCC1)N1C[C@@H]2[C@H](c3ccccc31)[C@@H](CO)N2C(=O)c1ccccc1	-15	11
Cc1noc(C)c1NC(=O)Nc1ccc2c(c1)CC(=O)N([C@@H](C)CO)C[C@@H](C)[C@H](CN(C)Cc1ccc(C(=O)O)cc1)O2	1	10
SMILES	Vaccinia inh	Vaccinia inh Venus
Cc1cccc(-c2ccc([C@@H]3[C@@H](CO)N4CCCCN(C(=O)NC(C)C)C[C@@H]34)cc2)c1	-17	-34
O=C(C[C@H]1C=C[C@H](NC(=O)c2ccccc2)[C@H](CO)O1)NCc1ccc(Oc2ccccc2)cc1	-1	-6
O=C(Nc1ccc(F)cc1)N[C@H]1CC[C@H](CC(=O)N2CCOCC2)O[C@H]1CO	1	-3
C[C@H]1CN([C@@H](C)CO)C(=O)c2cc(C3=CCCC3)cnc2O[C@H]1CN(C)C(=O)CN(C)C	9	-6
Cc1ccc(S(=O)(=O)N(C)C[C@@H]2Oc3ccc(NS(=O)(=O)c4ccc(F)cc4)cc3CC(=O)N([C@@H](C)CO)C[C@@H]2C)cc1	0	-4
COCC(=O)N1C[C@@H](C)[C@@H](OC)CN(C)C(=O)c2ccc(NC(=O)c3cnccn3)cc2OC[C@@H]1C	8	13
O=C(C[C@H]1CC[C@@H](NC(=O)CN2CCOCC2)[C@@H](CO)O1)NC1CCCCC1	-6	-8
CC(C)NC(=O)Nc1ccc2c(c1)C(=O)N([C@H](C)CO)C[C@H](C)[C@H](CN(C)S(=O)(=O)c1ccccc1)O2	16	9
C[C@@H]1CN([C@@H](C)CO)S(=O)(=O)c2ccc(-c3cccc(C#N)c3)cc2O[C@H]1CN(C)C(=O)c1ccncc1	20	21
C[C@@H]1CN([C@H](C)CO)S(=O)(=O)c2ccc(C#C[C@@H](C)O)cc2O[C@H]1CN(C)Cc1ccncc1	1	6
C[C@@H]1CN([C@H](C)CO)C(=O)c2cc(NC(=O)NC3CCCCC3)ccc2O[C@@H]1CN(C)S(=O)(=O)c1ccccc1	-16	-16
O=C(C[C@H]1C=C[C@H](NC(=O)CN2CCOCC2)[C@H](CO)O1)NCCc1ccncc1	8	-1
C[C@@H]1CCCCO[C@H](CN(C)C)[C@H](C)CN([C@@H](C)CO)C(=O)c2cc(NC(=O)Nc3ccc(C(F)(F)F)cc3)ccc2O1	u	-4
COc1ccccc1CNC(=O)C[C@H]1CC[C@H]2[C@H](COc3ccc(NC(=O)Nc4ccc(F)c(F)c4)cc3C(=O)N2C)O1	-9	9
C[C@H](CO)N1C[C@H](C)[C@@H](CN(C)Cc2ccc3c(c2)OCO3)Oc2c(NC(=O)c3ccncc3)cccc2C1=O	10	11
CCCC#Cc1cnc2c(c1)C(=O)N([C@H](C)CO)C[C@H](C)[C@H](CN(C)C(=O)NCCC)O2	0	5
COc1ccc(S(=O)(=O)Nc2ccc3c(c2)C(=O)N([C@@H](C)CO)C[C@H](C)[C@H](CN(C)Cc2ccc(Oc4ccccc4)cc2)O3)cc1	u	x
COc1ccc(C#Cc2ccc([C@@H]3[C@@H](CO)N4C(=O)CN(C(=O)Nc5ccccc5F)C[C@H]34)cc2)cc1	u	x
C[C@@H]1CN([C@@H](C)CO)S(=O)(=O)c2ccc(C3=CCCCC3)cc2O[C@@H]1CN(C)C(=O)C1CC1	-20	-9
C[C@H](CO)N1C[C@H](C)[C@@H](CN(C)S(=O)(=O)c2ccc(F)cc2)OCCCC[C@H](C)Oc2ccc(NC(=O)C3CCCCC3)cc2C1=O	-17	-6
CS(=O)(=O)N1CCCCN2[C@@H](CO)[C@H](c3ccc(-c4cccc(C#N)c4)cc3)[C@@H]2C1	10	-4
C[C@H](CO)N1C[C@H](C)[C@@H](CN(C)C(=O)C2CCOCC2)Oc2ncc(-c3ccccc3F)cc2C1=O	11	13
CC(=O)N1CCCCN2[C@H](C1)[C@H](c1ccc(-c3cccc(C(=O)N(C)C)c3)cc1)[C@@H]2CO	25	9
C[C@@H]1CN([C@H](C)CO)C(=O)c2cccc(NC(=O)C3CC3)c2O[C@H]1CN(C)Cc1ccc(C(=O)O)cc1	12	18
CCCN1C[C@H](C)[C@@H](OC)CN(C)C(=O)c2ccc(NC(=O)c3cccc(OC)c3)cc2OC[C@H]1C	-4	-3
SMILES	Vaccinia inh	Vaccinia inh Venus
COc1cccc(-c2cnc3c(c2)C(=O)N([C@H](C)CO)C[C@H](C)[C@H](CN(C)Cc2ccc(F)cc2)O3)c1	-2&-12	-1&-12
C[C@H]1CN([C@@H](C)CO)C(=O)c2cc(C#Cc3cccc(F)c3)cnc2O[C@H]1CN(C)C(=O)C1CCCCC1	u	x
C[C@H](CO)N1C[C@H](C)[C@H](CN(C)C(=O)c2ccccc2F)Oc2ncc(C#Cc3ccccc3)cc2C1=O	-15	-14
C[C@@H]1CN([C@@H](C)CO)C(=O)c2cccc(NS(=O)(=O)c3cn(C)cn3)c2O[C@@H]1CN(C)Cc1ccc(-c2ccccc2)cc1	2	0
COc1ccccc1-c1ccc2c(c1)O[C@@H](CN(C)C(=O)c1ccccc1)[C@@H](C)CN([C@H](C)CO)S2(=O)=O	-21	-27
O=C(C[C@H]1CC[C@H](NC(=O)Nc2cc(F)ccc2F)[C@H](CO)O1)NCCCN1CCOCC1	8	8
COc1ccc(S(=O)(=O)N(C)C[C@@H]2OCCCC[C@H](C)Oc3ccc(NS(=O)(=O)c4c(C)noc4C)cc3C(=O)N([C@H](C)CO)C[C@@H]2C)cc1	u	x
CO[C@H]1CN(C)C(=O)c2cc(NC(=O)c3ccccc3F)ccc2OC[C@H](C)N(CC2CCOCC2)C[C@H]1C	1	6
O=C(O)CCCCCCC(=O)NOCc1ccccc1	12	4
O=C(C1CCCC1)N1CC(=O)N2[C@H](CO)[C@H](c3ccc(-c4ccccc4F)cc3)[C@@H]2C1	-25	-16
Cc1ccc(S(=O)(=O)N(C)C[C@H]2Oc3ccc(NC(=O)Cn4cnnn4)cc3CC(=O)N([C@H](C)CO)C[C@@H]2C)cc1	29	35
O=C(Nc1ccccc1F)N1CC(=O)N2[C@H](CO)[C@H](c3ccc(C#CC4CC4)cc3)[C@@H]2C1	-3	-1
COc1cccc(S(=O)(=O)N(C)C[C@@H]2Oc3ncc(-c4cccc(C(=O)N(C)C)c4)cc3C(=O)N([C@@H](C)CO)C[C@H]2C)c1	8	8
CCCC(=O)N1CC2(C1)CN(C(=O)C1CCCCC1)[C@@H](CO)c1[nH]c3cc(OC)ccc3c12	17	14
C[C@H]1CN([C@@H](C)CO)C(=O)CCCn2cc(nn2)CO[C@@H]1CN(C)C(=O)CCCN(C)C	19	17
Cc1ccc(S(=O)(=O)N2C[C@@H](O)COC[C@@H]3O[C@H](CC(=O)NCc4ccc5c(c4)OCO5)CC[C@H]32)cc1	-27	-8
C[C@H](CO)N1C[C@H](C)[C@H](CN(C)S(=O)(=O)c2ccccc2F)OCc2cnnn2CCCC1=O	4&12	4&15
CCCC(=O)Nc1ccc2c(c1)C(=O)N(C)C[C@@H](OC)[C@H](C)CN(C(C)=O)[C@H](C)CO2	13	9
C[C@H](CO)N1C[C@H](C)[C@@H](CN(C)S(=O)(=O)c2ccccc2)OCc2ccccc2-c2ccccc2C1=O	-14	-4
COCC(=O)N(C[C@H]1[C@H](c2ccccc2)[C@H](CO)N1C(=O)NC(C)C)C(C)C	11	16
COC(=O)[C@@H]1[C@@H](CO)[C@@H]2Cn3c(cccc3=O)[C@H]1N2Cc1nccs1	21	14
COc1ccc(NC(=O)Nc2ccc3c(c2)C(=O)N([C@@H](C)CO)C[C@@H](C)[C@H](CN(C)C(=O)C2CCCCC2)OCCCC[C@H](C)O3)cc1	-7	-12
CCS(=O)(=O)N1CC2(C1)[C@@H](c1ccccc1)[C@H](CO)N2C(=O)C1CC1	24	16
CC(=O)N1CCCCN2[C@H](CO)[C@H](c3ccc(-c4ccccc4)cc3)[C@H]2C1	-1	7
CC(C)CC#Cc1ccc2c(c1)O[C@@H](CN(C)C(=O)c1ccccn1)[C@H](C)CN([C@H](C)CO)S2(=O)=O	3	0
COc1ccc(S(=O)(=O)N2CC[C@@H]3[C@H](CO)Nc4ccc(-c5cccc(C#N)c5)cc4[C@@H]32)cc1	u	x
CCC(=O)N1[C@H](CO)[C@H](c2ccc(C3=CCCCC3)cc2)[C@@H]1CN(C)C(C)=O	-1	8
C[C@H](CO)N1C[C@H](C)[C@@H](CN(C)C(=O)C2CCOCC2)Oc2ncc(-c3cccnc3)cc2C1=O	21	-2
C[C@@H]1CCCCO[C@H](CN(C)C(=O)NC2CCCCC2)[C@@H](C)CN([C@@H](C)CO)C(=O)c2cc(NC(=O)NC3CCCCC3)ccc2O1	-34	-27
C[C@H]1CN([C@@H](C)CO)C(=O)CCCn2nncc2CO[C@@H]1CN(C)C	1	7
